Compound activity: PubChem BioAssay, several laboratories
ALR inh: blocks human ALR sulfhydryl oxidase activity. P55789. purified ALR, DTT oxidation, H2O2 HRP-luminol luminescence. inhibition, % (concentration not given with the values). 3.8% of 290,000 active. AID 485317;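 active = mean and each replicate at 75% or more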;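 also: stock transfer was 7.5 nL into about 7.5 µL; 0% = neutral wells and 100% = wells with inactivated enzyme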
Target sequence (P55789 whole entry, looked up): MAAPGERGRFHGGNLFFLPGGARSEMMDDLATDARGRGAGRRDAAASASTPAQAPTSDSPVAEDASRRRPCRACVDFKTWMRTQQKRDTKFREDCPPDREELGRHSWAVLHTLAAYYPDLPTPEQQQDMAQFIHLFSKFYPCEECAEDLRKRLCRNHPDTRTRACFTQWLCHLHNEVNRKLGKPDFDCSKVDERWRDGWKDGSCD
Ecoli growth: inhibitors of Escherichia coli growth. OD600, 23 h; hits give low values. OD600 absorbance (test concentration not listed). 0.21% of 330,000 active;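 active = OD600 absorbance below the run mean of sample wells minus 3.6 SD, in any replicate, cut at about 0.56 in these data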;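 also: stock transfer was 300 nL into about 60 µL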
B2AR ag: human beta-2 adrenergic receptor agonism by FAP | 0.43% of 340,000 active | P07550 | Am2.2-beta2AR cells, FAP receptor internalization, flow cytometry; reference of the scale not given here | response, % (test concentration not listed);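 active = response above a set limit, near 3 SD of response in nonfluorescent compounds, cut at about 42% in these data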;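 also: stock transfer was 100 nL into about 11 µL; a reference agonist was the positive control; negative values mostly stem from fluorescent compounds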
Target sequence (P07550 whole entry, looked up): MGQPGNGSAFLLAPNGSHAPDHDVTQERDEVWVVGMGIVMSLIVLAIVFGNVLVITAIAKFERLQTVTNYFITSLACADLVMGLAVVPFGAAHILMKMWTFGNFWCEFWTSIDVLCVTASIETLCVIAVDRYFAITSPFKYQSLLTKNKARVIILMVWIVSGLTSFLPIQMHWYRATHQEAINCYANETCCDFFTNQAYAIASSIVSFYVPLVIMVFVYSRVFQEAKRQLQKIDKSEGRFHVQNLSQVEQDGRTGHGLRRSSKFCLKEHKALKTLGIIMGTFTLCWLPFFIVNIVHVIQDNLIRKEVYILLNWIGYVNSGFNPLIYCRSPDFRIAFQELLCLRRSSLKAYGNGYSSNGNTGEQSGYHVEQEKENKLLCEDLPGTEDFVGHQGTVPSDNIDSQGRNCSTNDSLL
Ecoli rRNA inh: inhibitors of bacterial rRNA selective over humanized ribosomes. E. coli WT GFP vs humanized-ribosome RFP mutants, fluorescence, 24 h; hits give low values; DMSO median 0, no signal -100. GFP signal change (wild-type ribosome), % (no concentration beside the values). 1.6% of 350,000 active. AID 720706;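 active = significant combined selectivity score with lowered wild-type GFP, culture density cut under 30%, mutant RFP and density less affected; inactive = any of these conditions unmet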; also: one replicate is shown; some compounds called inactive have numbers as strong as hits
HNF4A DNA FP: change in binding of human HNF4 alpha to DNA; HNF4a-FITC DNA binding, fluorescence polarization, 1 h; activity change, % at 10 µM; 0.3% of 360,000 active; in the data active = activity change above about 30%, passing the limit was not always enough;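 also: controls were the assay level and a saturating level of protein; the project sought stronger binding though the title names inhibitors; some compounds called inactive have numbers as strong as hits; positive values seem to mean higher polarization but the record does not say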
UCH37 DUB inh: blocks the human deubiquitinase UCH37. inhibition, % (test concentration not listed). Q9Y5K5. 0.33% of 330,000 active. purified proteasome/UCH37, Ub-AMC cleavage fluorescence;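 active = mean of two replicates above 20%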;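 also: 0% = compound-free wells with enzyme and 100% = wells lacking proteasome; stock transfer was 100 nL into about 20 µL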
Target sequence (Q9Y5K5 whole entry, looked up): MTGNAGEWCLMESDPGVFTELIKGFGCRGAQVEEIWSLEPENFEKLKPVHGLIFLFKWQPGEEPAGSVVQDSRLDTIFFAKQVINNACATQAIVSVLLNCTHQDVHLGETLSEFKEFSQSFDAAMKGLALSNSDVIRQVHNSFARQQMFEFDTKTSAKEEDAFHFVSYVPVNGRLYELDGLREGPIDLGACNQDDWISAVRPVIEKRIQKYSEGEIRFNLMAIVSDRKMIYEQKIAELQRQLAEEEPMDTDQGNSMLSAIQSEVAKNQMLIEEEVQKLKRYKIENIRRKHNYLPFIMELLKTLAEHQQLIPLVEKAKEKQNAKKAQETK
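System: Proteasome-associated human UCH37 deubiquitinase; Input: 0.15 nM proteasome in added enzyme buffer; Also added: Ub-AMC substrate from 1 µM stock; Incubation: 30 min compound-proteasome preincubation then 25 min substrate reaction, room temperature; Detection: fluorescence, ex 355 nm, em 460 nm; Read-out: % inhibition of Ub-AMC cleavage fluorescence; Benchmarks: no-proteasome and no-compound wells.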
FGF22 binding: FGF22 (human) thermal shift binding; Q9HCT0; recombinant FGF22 thermal shift, SYPRO orange fluorescence; percent of sucrose octasulfate shift, DMSO zero; calls only at 9.99 µM; 1.5% of 340,000 active; AID 651658;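 active = melting point raised past a set limit in the mean and every replicate; three in four hits are not shown here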
Ecoli rRNA inh OD600: second read-out of Ecoli rRNA inh, no call of its own (marks repeat the call); OD600 change, %; measured here: OD600 growth;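 optical density of the mix in the first replicate; 0 = DMSO median and -100 = no signal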
Ecoli rRNA inh RFP: also measured in Ecoli rRNA inh; calls as there; RFP signal change, %; measured here: RFP humanized mutant strains;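 first replicate; 0 = DMSO median and -100 = no signal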
The depositor's hits bear a star; i = inactive; . = no result given; & = joins results of further samples. Not all compounds are listed, so the mix of outcomes need not match the whole.

SMILES | ALR inh | Ecoli growth | B2AR ag | Ecoli rRNA inh | Ecoli rRNA inh OD600 | Ecoli rRNA inh RFP | HNF4A DNA FP | UCH37 DUB inh | FGF22 binding
O=C(CCC1CCCN(C(=O)c2ccoc2)C1)NCc1ccc(F)c(F)c1 (stereo not drawn) | -4 | 0.67 | 9 | 5 | -1 | 1.3 | -1.3 | 3.8 | i
O=C(Nc1ccc(Cl)cc1)C1C2CCCCC21 (stereo not drawn) | -19 | 0.66 | 5 | 4 | 1 | -2.6 | -0.1 | -0.2 | i
COc1cccc(CNS(=O)(=O)c2ccc3c(c2)C(C)(C)C(=O)N3C)c1 | 47 | 0.7 | -1 | . | . | . | -1.6 | -11 | .
Cc1cccc(CCNC(=O)CCS(=O)(=O)c2ccc3nc(C)sc3c2)c1 | 16 | 0.72 | 10 | 5 | 13 | 1.7 | -1.3 | 2.8 | i
O=c1[nH]c(=O)n(Cc2ccccc2)c2nc(-c3ccc(Oc4ccc(F)cc4)c([N+](=O)[O-])c3)n(CCO)c12 | 2 | 0.73 | -5 | 11 | 7 | 17 | -0.6 | 8.8 | i
CCOC(=O)C1=C(CN2CCN(c3ccc(F)cc3)CC2)NC(=O)NC1c1cccs1 (stereo not drawn) | 19 | 0.71 | -1 | . | . | . | 1.3 | 6.3 | .
CSc1ccc(S(=O)(=O)Nc2ccc(NC(C)=O)cc2)cc1 | -16 | 0.77 | -11 | . | . | . | -0.3 | 2.2 | .
Cc1nn(CCC(=O)O)c2nc(-c3cccnc3)cc(C(F)(F)F)c12 | -8 | 0.73 | 4 | . | . | . | 1.6 | -67 | .
NC(=O)C1CCN(C(c2ccccc2Cl)c2nnnn2CC2CCCO2)CC1 (stereo not drawn) | -1 | 0.8 | 7 | . | . | . | 3.4 | 1.9 | .
CCCc1oc(C(=O)O)cc1CN | 13 | 0.67 | 10 | 10 | -4 | 2.1 | 7.4 | 5.2 | .
CC1=CS(=O)(=O)CC1SC(=S)N(C)C1CCS(=O)(=O)C1 (stereo not drawn) | 2 | 0.68 | -1 | 8 | 5 | 3.4 | -5.3 | -2.5 | i
CO/N=C/NC(=O)c1c(OC)ccnc1Oc1ccc(F)cc1 | -6 | 0.62 | 2 | 14 | 5 | 1.7 | -0.5 | 0.3 | i
CCOC(=O)C1CCCN(C(=O)C2CCN(S(=O)(=O)c3c(C)noc3/C=C/c3ccccc3F)CC2)C1 (stereo not drawn) | -12 | 0.72 | -1 | -1 | -3 | 3.0 | -1.9 | 2.0 | i
O=C(CCSc1nc(-c2ccc3c(c2)OCO3)cc(C(F)(F)F)n1)NCc1ccco1 | 1 | 0.74 | -14 | -13 | -8 | -0.5 | -3.3 | -176 | i
COc1ccc(CN(C)CC(O)COC(c2ccc(OC)cc2)c2ccc(OC)cc2)cc1 (stereo not drawn) | . | 0.64 | 11 | -4 | -15 | 28 | 2.2 | 2.8 | i
O=C(NCCN1CCCC1)C(c1ccccc1)c1ccccc1 | -11 | 0.68 | -4 | 4 | 10 | -0.7 | 4.2 | 2.2 | i
Nc1nc2nccc(-c3cccnc3)n2n1 | -2 | 0.68 | 12 | 25 | 21 | 0.4 | -2.5 | -88 | i
Cc1ccc(C(c2nnnn2CS(=O)(=O)c2ccc(C)cc2)N2CCN(c3ncccn3)CC2)cc1 (stereo not drawn) | 2 | 0.73 | -3 | . | . | . | 2.6 | -0.4 | .
O=C(CNC(=S)N(CCCN1CCOCC1)Cc1cccs1)NCc1ccc(Cl)cc1 | -4 | 0.68 | 1 | -1 | -15 | 3.2 | -1.1 | 0.0 | i
CCC(C(=O)Nc1ccc(C(=O)Nc2ccccc2C(=O)O)cc1)c1ccccc1 (stereo not drawn) | 79* | 0.67 | 2 | -37 | -48 | -9.0 | -1.4 | 2.3 | i
Cc1ccc(C)n1-c1sc2c(c1C#N)CCC(C)C2 (stereo not drawn) | 46 | 0.72 | 3 | . | . | . | 1.4 | 1.8 | .
O=C1C2C3C=CC(C4CC34)C2C(=O)N1c1cccc2ccccc12 (stereo not drawn) | -23 | 0.67 | -4 | 1 | -4 | -1.8 | -1.9 | 0.6 | i
O=C(CNC(=O)c1cccs1)NCC(=O)OCc1ccccc1Br | -20 | 0.75 | -4 | 3 | 11 | -0.9 | -0.2 | -0.3 | i
COc1ccc(CNc2ncc(-c3ccc(Br)cc3)n2C)cc1OC | . | 0.63 | 0 | -14 | -7 | 3.4 | 4.7 | 7.3 | i

The closing three compounds of the part above lead into the next:
SMILES | ALR inh | Ecoli growth | B2AR ag | Ecoli rRNA inh | Ecoli rRNA inh OD600 | Ecoli rRNA inh RFP | HNF4A DNA FP | UCH37 DUB inh | FGF22 binding
O=C1C2C3C=CC(C4CC34)C2C(=O)N1c1cccc2ccccc12 (stereo not drawn) | -23 | 0.67 | -4 | 1 | -4 | -1.8 | -1.9 | 0.6 | i
O=C(CNC(=O)c1cccs1)NCC(=O)OCc1ccccc1Br | -20 | 0.75 | -4 | 3 | 11 | -0.9 | -0.2 | -0.3 | i
COc1ccc(CNc2ncc(-c3ccc(Br)cc3)n2C)cc1OC | . | 0.63 | 0 | -14 | -7 | 3.4 | 4.7 | 7.3 | i
CCOC(=O)c1sc(=S)n(CC)c1NC(=O)CC | 6 | 0.7 | 2 | . | . | . | 0.8 | 7.6 | .
CCCCN(C)CCC(=O)Nc1ccc(Cl)cc1 | 9 | 0.64 | 2 | . | . | . | -3.0 | 2.2 | .
O=C(CCCn1c(SCC(=O)NCCc2ccccc2)nc2ccccc2c1=O)NCC1CCCO1 (stereo not drawn) | -5 | 0.7 | -6 | 28 | 16 | 1.5 | 0.2 | 0.8 | .
Cc1cccc(C)c1NS(=O)(=O)c1ccc(-c2ccc(=O)[nH]n2)o1 | 0 | 0.64 | 3 | 0 | -1 | -3.1 | 2.7 | 1.5 | i
Cn1c(=O)[nH]c(=O)c2c1nc(NCCN)n2CCOc1ccccc1 | 10 | 0.64 | -11 | 7 | 8 | -1.1 | 2.5 | 2.7 | i
CCCN1CCC(=O)N([C@H](CSc2ccc(Br)cc2)Cc2ccccc2)CC1 | . | . | 5 | 6 | -6 | -1.2 | -2.5 | 5.8 | i
COc1ccc(-c2cn(-c3ccccc3)c(=S)[nH]2)cc1OC | -7 | 0.65 | -4 | 12 | 10 | 0.6 | 0.3 | 4.0 | i
COCCCn1c(SCC(=O)N(C)C)nnc1-c1ccccc1 | -8 | 0.72 | -7 | 10 | 6 | -3.3 | 2.2 | 1.5 | i
CCN(CC)S(=O)(=O)c1ccc(NC(=O)C(C)N(c2ccc(OC)cc2)S(C)(=O)=O)cc1 (stereo not drawn) | . | 0.66 | -3 | . | . | . | 3.2 | -0.1 | .
O=[N+]([O-])c1ccc(S(=O)(=O)Nc2ccncc2)cc1 | -16 | 0.66 | 2 | -8 | 2 | -0.6 | -0.3 | 0.2 | i
COc1ccc(OCC(=O)Nc2ccc(S(=O)(=O)N3CCN(C)CC3)cc2)cc1 | -5 | 0.66 | 5 | 4 | 0 | -1.2 | 1.4 | -0.1 | i
CSc1ncnc2[nH]ccc12 | . | 0.66 | -1 | 12 | 16 | 1.5 | 4.1 | 3.3 | i
CCN(CC)CCCNc1cc(C)c(C#N)c2nc3ccccc3n12 | . | . | . | 10 | 10 | 1.8 | -4.5 | . | i
CCN1C(=O)/C(=C2/C=CC=CN2C)SC1=S | 99* | 0.69 | -6 | . | . | . | 1.0 | 16 | .
COc1ccc(S(=O)(=O)Nc2cccc3c2O[C@H](CN(C)Cc2ccncc2)[C@@H](C)CN([C@H](C)CO)C3=O)cc1 | -10 | . | 0 | 5&-2 | -3&9 | -2.3&-2.3 | -0.7 | 0.4 | i
CC(=O)N1CCN(C(=O)CCc2c[nH]c3ccccc23)CC1 | 5 | 0.72 | 4 | . | . | . | 0.8 | 2.9 | .
COc1ccc(C2CC(c3ccc(Br)cc3)=NN2C(=O)CCC(=O)O)cc1OC (stereo not drawn) | -5 | . | -3 | -9 | -2 | -0.6 | -0.1 | . | i
CC(C)(C)CNC(=O)C1(C)CCN1C(=O)c1ccccc1CCc1ccccc1 (stereo not drawn) | . | . | . | -4 | -15 | -3.0 | -0.3 | . | i
Cc1cc(C)cc(Nc2nc3ccccc3c(=O)[nH]2)c1 | . | 0.68 | 7 | 12 | 21 | 0.4 | -0.8 | -1.7 | i
CCC(=O)NC(=S)Nc1cc(C(=O)O)ccc1OC | -5 | 0.71 | -4 | 3 | 4 | -0.9 | 0.8 | 6.2 | i
CCCC1(c2ccsc2)NC(=O)NC1=O (stereo not drawn) | . | . | -8 | 11 | 22 | -2.3 | -2.4 | . | i
COCCN(C(=O)CSc1nc2nc(C)cc(C)n2n1)c1c(N)n(Cc2ccccc2)c(=O)[nH]c1=O | -7 | 0.65 | -2 | 18 | 13 | -0.2 | -1.8 | 2.2 | i
CCOC(=O)N1CCN(C(=O)c2cccn3c(=O)c4cc(Br)ccc4nc23)CC1 | 7 | 0.68 | -21 | 18 | 18 | 4.1 | 2.0 | 0.3 | i
O=C(Nc1cc(Cl)cc(Cl)c1)C1CCC(=O)N1Cc1ccccc1Cl (stereo not drawn) | -17 | 0.66 | 0 | . | . | . | -1.0 | 4.4 | .
CC(=O)c1cc2c(cc1NC(=O)CSc1ccc(S(=O)(=O)N(C)C)cn1)OCO2 | -10 | 0.71 | 0 | 13 | 14 | -0.5 | 5.9 | -16 | i
COC(=O)C1CCN(C(=O)COC(=O)c2cccc(NS(=O)(=O)c3ccccc3)c2)CC1 | . | 0.64 | 10 | -2 | -7 | 1.0 | -2.7 | 1.8 | i
CCOC(=O)c1c(N)sc2c1CCC(CC)C2 (stereo not drawn) | 47 | 0.64 | -4 | -24 | -19 | 2.6 | -2.8 | 1.1 | .
CC(C)[C@@H](N)C(=O)NC[C@H]1O[C@@H](n2cnc3c(N)ncnc32)[C@H](O)[C@@H]1O | . | 0.67 | 1 | 14 | -1 | 1.9 | 0.9 | -0.4 | i
COc1ccc(CC(=O)NCc2nnc(SCC(=O)Nc3ccc(OC)cc3)n2C)cc1 | -1 | 0.72 | -8 | 6 | 5 | 5.1 | -3.8 | 0.5 | i
Cc1cc(C)n2nc(SCC(N)=O)nc2n1 | -9 | 0.69 | -1 | 17 | 12 | 1.2 | -3.1 | 3.2 | .
COc1ccc(-n2nc3ccccc3n2)cc1 | -1 | 0.65 | 1 | . | . | . | -1.1 | -0.4 | .
CCOC(=O)c1[nH]c(=O)[nH]c1CSc1nc(C)cc(C)n1 | 74 | 0.77 | -4 | . | . | . | 4.9 | 5.6 | .
Cc1c(NS(=O)(=O)c2ccc3c(c2)OCCO3)cccc1-c1nc2cccnc2s1 | . | 0.76 | -11 | 5 | -29 | 5.0 | -1.0 | -5.2 | i

3 compounds already listed, ordered by the value under B2AR ag, rising:
| SMILES | ALR inh | Ecoli growth | B2AR ag | Ecoli rRNA inh | Ecoli rRNA inh OD600 | Ecoli rRNA inh RFP | HNF4A DNA FP | UCH37 DUB inh | FGF22 binding |
| --- | --- | --- | --- | --- | --- | --- | --- | --- | --- |
| COc1ccc(CC(=O)NCc2nnc(SCC(=O)Nc3ccc(OC)cc3)n2C)cc1 | -1 | 0.72 | -8 | 6 | 5 | 5.1 | -3.8 | 0.5 | i |
| O=C(NCCN1CCCC1)C(c1ccccc1)c1ccccc1 | -11 | 0.68 | -4 | 4 | 10 | -0.7 | 4.2 | 2.2 | i |
| Cc1cccc(CCNC(=O)CCS(=O)(=O)c2ccc3nc(C)sc3c2)c1 | 16 | 0.72 | 10 | 5 | 13 | 1.7 | -1.3 | 2.8 | i |
